# Screens (PubChem BioAssay)
# Bead autofluor – compound fluorescence in toxin protease inhibitor counterscreen; compound autofluorescence counterscreen, microsphere flow cytometry; stronger effect = higher value; fluorescence intensity (concentration not given with the values); actives 3.1% (n = 360,000);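 active means at least 3 SD above the mean of all compounds, about 16000 in these data; inconclusive means too few beads counted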;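 further: 100 nL of 1 mM stock went into each well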
# PrP 5UTR inh – suppresses PrP 5' UTR mRNA reporter expression. actives 0.35% (n = 340,000). AID 488862. cell-based PrP 5' UTR mRNA reporter, plate reader. inhibition, % (concentration not given with the values);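 active means every replicate at 50% or more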;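 further: 0 = median of the neutral control wells; tested in H4 reporter cells; numbers are from one replicate; inactives centre near -14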
# Sa RN4220 lethal – kills Staphylococcus aureus RN4220; S. aureus RN4220 growth, OD600, 16 h; inhibition, % (test concentration not listed); actives 0.33% (n = 330,000); AID 1259311;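 active means z-score of -3 or lower and OD600 up to 0.18 on both plates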;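 further: plate controls were untreated cells for no effect and reference antibiotic for full effect; stock transfer was 100 nL into about 80 µL; one replicate is shown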
# BJeLR lethal – BJeLR cell viability loss. BJeLR (HRASV12) viability, CellTiter-Glo ATP luminescence, 48 h; reference of the scale not given here. inhibition, % (concentration not given with the values). actives 0.17% (n = 300,000);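 active means replicate mean above 50%; inconclusive means above 50% but judged a plate artefact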;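 further: 50 nL library stock added to about 25 µL; numbers are from one replicate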
# Mtb hypoxia inh – Mtb hypoxia fluorescent reporter inhibition | M. tuberculosis hypoxia-regulated fluorescent reporter, fluorescence | fluorescence inhibition, % (test concentration not listed) | actives 0.1% (n = 300,000);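 active means 35 to 45% if threefold the growth effect, above 45% if 1.5-fold the growth effect; inactive means the rest, general growth blockers included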;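 further: wells of about 50 µL received 100 nL stock; 0% = vehicle wells and 100% = reference inhibitor wells; whole bacteria with a GFP reporter of the hypoxia response; strong numbers were not always called active; many hits fall short of the cut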
# Sa ugtP lethal – growth inhibition of S. aureus ugtP deletion strain; AID 1259309; actives 0.54% (n = 330,000); S. aureus RN4220 ugtP deletion, OD600 growth, 16 h; some inactives read as strong as hits; growth inhibition, % (test concentration not listed);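 active means z-score under -3 and OD600 up to 0.15 on both plates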;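 further: plate controls were untreated wells for no effect and antibiotic for full effect; wells of about 80 µL received 100 nL stock; the first replicate is given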
# Mtb hypoxia inh growth – second read-out of Mtb hypoxia inh, no call of its own (marks repeat the call); growth inhibition, %; measured here: M. tuberculosis growth (absorbance);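 0% = vehicle and 100% = reference antibiotic; read after six days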
# The depositor's hits bear a star; ? = inconclusive; . = not tested or not shown.
compound,Bead autofluor,PrP 5UTR inh,Sa RN4220 lethal,BJeLR lethal,Mtb hypoxia inh,Mtb hypoxia inh growth,Sa ugtP lethal
CCOP(=O)(OCC)C(Nc1cccc(C(F)(F)F)c1)c1ccc(Br)cc1 (centres undefined),.,.,-3.4,16.2,0.4,7.4,-15.5
O=S(=O)(NC(=NC1CCCC1)C(F)(F)F)c1ccccc1,4754,-10.5,-2.3,8.2,.,.,8.4
COc1ccc(-c2nnn(CC(=O)c3ccc4c(c3)OCCO4)n2)cc1OC,6632,-29.3,3.7,2.0,4.2,4.7,2.1
CCCC(C)NC(=O)C1c2ccccc2Oc2ccccc21 (centres undefined),2975,15.4,0.9,-14.3,-0.1,-2.5,6.9
COc1ccc(-c2cc(=O)oc3cc(OCC(=O)c4cccc([N+](=O)[O-])c4)ccc23)cc1,.,.,1.4,11.6,6.4,6.9,1.1
O=C(N/N=C/c1cn(-c2ccccc2)nc1-c1cc2ccccc2o1)c1ccccc1Br,2533,-199.6,.,-0.1,.,.,.
Cc1sc2nc(CSCC(=O)Nc3c(Cl)cccc3Cl)[nH]c(=O)c2c1C,2630,-6.5,5.0,-17.7,-4.5,4.0,7.9
O=C(NNC(=S)Nc1ccccc1)c1cccnc1,6384,-4.6,0.1,-8.3,-10.4,5.4,-0.7

# Entries of single compounds, looked up by structure. Order of screens: Bead autofluor, PrP 5UTR inh, Sa RN4220 lethal, BJeLR lethal, Mtb hypoxia inh, Mtb hypoxia inh growth, Sa ugtP lethal
# Results for O=C(N/N=C/c1cn(-c2ccccc2)nc1-c1cc2ccccc2o1)c1ccccc1Br : 2533, -199.6, ., -0.1, ., ., .
# Results for CCOP(=O)(OCC)C(Nc1cccc(C(F)(F)F)c1)c1ccc(Br)cc1 (centres undefined) : ., ., -3.4, 16.2, 0.4, 7.4, -15.5
# Results for O=S(=O)(NC(=NC1CCCC1)C(F)(F)F)c1ccccc1 : 4754, -10.5, -2.3, 8.2, ., ., 8.4

# Later entries.
compound,Bead autofluor,PrP 5UTR inh,Sa RN4220 lethal,BJeLR lethal,Mtb hypoxia inh,Mtb hypoxia inh growth,Sa ugtP lethal
O=C(Nc1ccc(S(=O)(=O)NC2=NCCCCC2)cc1)c1ccc(C(F)(F)F)cc1,4678,-11.7,-0.2,8.7,1.5,7.8,6.5
O=C(O)c1ccc2c3c(cccc13)C(=O)N(OS(=O)(=O)c1ccccc1)C2=O,4066,-24.9,3.9,7.0,12.0,3.0,4.1
CN(N=Cc1ccc2c(c1)OCO2)c1nc(N2CCOCC2)nc(N2CCOCC2)n1,.,.,11.3,.,-12.5,-0.6,13.9
CN(C)C1(c2nnnn2-c2ccc(Cl)cc2)CCCCC1,5637,-10.6,.,-5.8,.,.,.
Cc1c(Cl)cccc1NC(=O)CSc1nnc(CCNC(=O)OC(C)(C)C)o1,22523*,-4.3,1.2,1.8,2.4,9.0,-2.5
Cc1ccc(-n2nc3c(N4CCC(C(=O)NCc5ccccc5C)CC4)nnc(C)c3c2C)cc1,16178*,-28.7,-1.5,-0.3,-7.9,7.1,-6.0
COc1ccc(-c2nnc(N(C)C(=O)C3CCOC3)s2)cc1 (centres undefined),3273,-25.7,-8.3,2.1,-1.0,1.9,4.5
O=C(CSc1n[nH]c(=O)[nH]c1=O)N/N=C/c1ccccc1O,2502,-25.0,.,5.4,.,.,.

# 2 compounds picked at random from the list so far, as already listed:
compound,Bead autofluor,PrP 5UTR inh,Sa RN4220 lethal,BJeLR lethal,Mtb hypoxia inh,Mtb hypoxia inh growth,Sa ugtP lethal
O=C(CSc1n[nH]c(=O)[nH]c1=O)N/N=C/c1ccccc1O,2502,-25.0,.,5.4,.,.,.
CN(C)C1(c2nnnn2-c2ccc(Cl)cc2)CCCCC1,5637,-10.6,.,-5.8,.,.,.

# New compounds follow:
compound,Bead autofluor,PrP 5UTR inh,Sa RN4220 lethal,BJeLR lethal,Mtb hypoxia inh,Mtb hypoxia inh growth,Sa ugtP lethal
CC(=NC1CC1)c1c(-c2ccccc2)[nH]n(-c2nc3ccccc3s2)c1=O,10698,-7.4,6.4,15.1,5.0,12.2,-26.3
NS(=O)(=O)c1ccc(CCNCc2ccccc2OCc2ccc(F)cc2)cc1,3359,-13.6,-1.4,0.0,11.2,3.2,1.6
Cn1c(Cc2ccc3c(c2)OCO3)nnc1SCC(=O)N1CCc2ccccc2C1,7794,-20.8,3.7,-15.4,6.0,-2.0,10.7
N#Cc1c(NC(=O)Cn2c(=O)oc3ccccc32)oc(-c2ccccc2)c1-c1ccccc1,2968,-3.6,-4.3,-10.6,-1.5,3.1,-4.8
CCOc1ccc(CN2CCN(c3ncnc4scc(-c5ccccc5)c34)CC2)cc1,3719,-7.8,0.1,1.2,-1.7,11.3,6.6
CCCn1c(SCC(=O)c2cc(OC)ccc2OC)nc2c1c(=O)n(C)c(=O)n2C,21330*,-21.6,9.3,.,3.3,11.3,-5.0
O=C(O)CCNc1ccc(Cl)cc1,5992,-8.2,3.4,2.2,7.2,5.9,6.0
Cc1ccc(-c2nnc(SCc3nc4ccccc4[nH]3)n2Cc2ccco2)cc1,10056,-49.0,0.0,-10.6,1.9,4.6,6.5

compound,Bead autofluor,PrP 5UTR inh,Sa RN4220 lethal,BJeLR lethal,Mtb hypoxia inh,Mtb hypoxia inh growth,Sa ugtP lethal
COc1cc(S(=O)(=O)NCC(c2ccco2)N2CCCCC2)ccc1NC(C)=O (centres undefined),3140,-11.6,2.3,.,9.1,-5.5,3.0
O=C(NCCSCc1ccco1)c1ccc(CN2CCOCC2)cc1,8911,-48.6,1.0,-12.1,2.2,9.3,6.2
[O-][n+]1c2ccccc2[n+]([O-])c2cc(O)ccc21,3364,-15.0,24.8,6.8,41.8*,9.0*,17.2
Cc1cc(C2C(C#N)=C(N)OC3=C2C(=O)CCC3)c(C)s1 (centres undefined),3420,-8.6,0.5,-11.0,.,.,8.1
O=C(NCc1ccc(F)cc1)c1ccc(CS(=O)(=O)Cc2ccccc2F)o1,3336,4.1,2.6,-3.4,-6.0,2.6,-5.8
O=C(NC(Cc1ccccc1)C(=O)OCC(=O)N1CCc2ccccc21)c1ccco1 (centres undefined),2762,-4.5,-9.5,1.3,4.0,2.4,-3.3
CCc1ccc(OCC(=O)NNC(=O)Cc2cccs2)cc1,2619,0.9,0.7,-1.4,-1.7,-2.1,-4.1
COC(=O)c1ccc(C23CC4(C2)C(CN(Cc2ccc(C(F)(F)F)cc2)C4c2ccccc2)C3c2ccc(Cl)nc2)cc1 (centres undefined),.,.,-7.0,.,-3.6,-1.5,-0.1

# Below each compound: Bead autofluor, PrP 5UTR inh, Sa RN4220 lethal, BJeLR lethal, Mtb hypoxia inh, Mtb hypoxia inh growth, Sa ugtP lethal
- OCC[C@@H]1C[C@H](O)[C@@H](O)[C@@]2(OCc3ccccc32)O1
    4002, -22.3, ., 10.3, ., ., .
- CCN(CC(=O)Nc1c(F)cccc1F)C(=O)c1ccc(COc2ccccc2)cc1
    ?, -5.3, 2.2, 2.2, -2.0, -2.5, -1.9
- COc1cc(Br)cc(C=NNC(=O)Cc2ccc(C(F)(F)F)cc2[N+](=O)[O-])c1O
    ., ., -7.0, ., 4.6, -0.8, 2.6
- C=CCNC(=O)C(=Cc1ccc2c(c1)OCO2)NC(=O)c1ccc(Br)cc1
    ., ., 7.0, ., -2.6, 2.2, 17.8
- CC(=O)c1c(C)[nH]c(C(=O)OCc2csc(CC(=O)Nc3ccccc3C)n2)c1C
    3544, -2.2, -1.1, ., 5.2, 6.7, 4.7
- O=C(O)c1cccc(NC(=O)c2cn(-c3ccccc3)nc2-c2cc3ccccc3o2)c1
    10632, -15.0, 18.4, 7.8, -4.9, -4.0, 16.9
- Clc1ccc(CO/N=C/c2c(-c3ccccc3)nc3n2CCS3)c(Cl)c1
    9311, 0.0, ., 4.2, ., ., .
- CCO/N=C(/c1nonc1N)N1CCN(c2ccc([N+](=O)[O-])cc2)CC1
    3548, -11.8, ., 2.9, ., ., .
- Cc1cccc(NC(=O)CCC2CCN(Cc3nccs3)CC2)c1
    4511, -7.3, 2.5, 8.8, -7.6, -6.0, 12.5
- COC(=O)Cc1ccc(NC(=S)NCc2ccccc2Cl)cc1
    11153, -13.0, 0.5, -7.0, 4.4, 4.7, 8.2
- Cn1c(=O)c2c(ncn2Cc2ccc(Cl)c(Cl)c2)n(C)c1=O
    19612*, -3.6, -1.8, 15.8, 6.7, 6.8, -6.7
- COc1ccccc1-c1sc2ccccc2c1-c1ccc(OCCN2CCCCC2)cc1
    3786, -17.0, -1.0, ., 14.8, 14.4, 20.1
- CCN1C(=O)[C@H]2[C@@H](c3ccc(-c4ccc(OC)cc4)cc3)N[C@@](C)(C(=O)OC)[C@H]2C1=O
    3939, 1.7, -15.1, 4.6, 1.0, 9.4, -9.0
- COC(=O)c1sc(NC(=S)NNC(=O)c2c(Br)c(C)nn2C)c(C(=O)OC)c1C
    4276, -4.6, 9.5, 3.1, 10.7, 3.9, 14.9
- COc1ccc(CCNC(=O)CCCn2c(=O)c3cccn3c3cccnc32)c(OC)c1OC
    5730, -1.3, -1.7, 1.4, -1.5, -5.0, 0.6

# Below each compound: Bead autofluor, PrP 5UTR inh, Sa RN4220 lethal, BJeLR lethal, Mtb hypoxia inh, Mtb hypoxia inh growth, Sa ugtP lethal
- COc1cccc(/C=N/n2c(-c3n[nH]c4c3CCC4)n[nH]c2=S)c1O
    2468, -7.8, ., 19.0, ., ., .
- COc1ccc(Cl)cc1C(=O)NNC1CC(=O)N(Cc2ccc(Cl)cc2)C1=O (centres undefined)
    2484, -0.2, 0.2, 5.3, -2.4, -7.6, 1.5
- C=CCON=CC1=C(O)C(C(=O)OC)C(C)(C)CC1=O (centres undefined)
    ., ., 5.0, ., 2.9, -4.3, 8.4
- CCN1CCN(C(=O)CN(c2cc(OC)ccc2OC)S(C)(=O)=O)CC1
    9347, 4.6, 5.6, -5.8, -0.7, 6.8, -4.5
- CCC(=O)c1ccc(OCC(=O)N(C)CC(=O)Nc2cccc(F)c2)cc1
    4260, 0.6, -1.0, 3.4, -1.0, 9.4, -0.7
- C[C@H](CO)N1C[C@H](C)[C@@H](CN(C)S(=O)(=O)c2cccs2)Oc2ccc(NC(=O)Cc3ccccc3)cc2C1=O
    3480, -37.6, -20.5, ., 1.4, 9.4, -9.1
- COc1ccc(/C=N/n2c(C)nnc2C)c(OC)c1OC
    2428, -16.7, ., -8.3, ., ., .
- O=C(CN1C(=O)C2C3C=CC(C4CC34)C2C1=O)Nc1cccc2ncccc12 (centres undefined)
    2525, -7.3, 2.1, -3.3, -22.8, 2.7, 0.3
- CCOc1ccc2ccccc2c1C1NC(=O)N(C)C(C)=C1C(=O)OCCOC (centres undefined)
    4227, 8.3, 5.1, 10.7, 15.6, 6.4, 9.6
- CCn1ncc(C2CC3CN(Cc4cccc(Cl)c4)C(=O)[C@]34CCCN24)c1C (some centres undefined)
    ., ., 2.6, ., 8.7, 17.4, -1.4
- COc1cc(C(=O)C(=O)c2ccc(OC)c(OC)c2)ccc1O
    3845, -14.9, 8.1, ., 5.2, 2.0, 2.4
- C/C(=N/NC(=O)CNC(=O)c1cccnc1)c1cccc([N+](=O)[O-])c1
    2369, -19.9, ., 0.1, ., ., .
- COc1ccc(C2CC(c3ccc(OC)cc3)n3nc(NS(C)(=O)=O)nc3N2)cc1 (centres undefined)
    5123, -4.0, 7.5, -8.5, -2.1, 4.3, 1.4
- CC(=O)Nc1cc(NC(C)=O)cc(C(=O)NCC2(N3CCOCC3)CCCCC2)c1
    ?, -16.1, 3.1, ., 2.6, -2.0, -3.6
- O=C(NN1C(=O)c2ccccc2NC1c1ccoc1)c1ccccc1 (centres undefined)
    4889, -7.6, 4.4, -1.0, -6.7, 9.4, -5.2

# Below each compound: Bead autofluor, PrP 5UTR inh, Sa RN4220 lethal, BJeLR lethal, Mtb hypoxia inh, Mtb hypoxia inh growth, Sa ugtP lethal
- COCCn1c(N)c(N(Cc2ccccc2)C(=O)c2cc(=O)[nH]c3ccccc23)c(=O)[nH]c1=O
    7358, -17.5, 2.1, ., 3.1, 2.0, 2.2
- Cc1ccnc(SCc2ccc(C(=O)O)cc2)n1
    3602, 7.1, ., -2.1, ., ., .
- Cc1noc(C)c1CCC(=O)O
    4809, -27.4, 4.3, 0.6, 18.5, 1.1, 11.6
- CCN(CC)CCn1c(NC(=O)c2ccc(C)cc2)nc2ccccc21
    3815, -48.0, 4.0, 2.9, 15.1, 0.8, 8.6
- O=C(c1cc([N+](=O)[O-])ccc1Cl)N1CCN(c2ccc(F)cc2)CC1
    2161, -2.7, ., 5.5, ., ., .
